# Compound activity: PubChem BioAssay, Johns Hopkins Ion Channel Center
# KCNQ2 inh: KCNQ2 potassium channel inhibitors, primary screen, cell-based, CHO-K1, FluxOR thallium flux, B-score (AID 2156). B-score at 10 µM. actives 1.1% (n = 310,000). 20 min; hits give low values; only compounds with negative scores are shown here; some inactives read as strong as hits. Potassium voltage-gated channel subfamily KQT member 2 (Rattus norvegicus), O88943;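 active means fluorescence ratio B-score at most minus 3 library SDs, with starting brightness B-score within 2 library SDs, cut at about -5.5 in these data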
# Target sequence (O88943 whole entry, looked up): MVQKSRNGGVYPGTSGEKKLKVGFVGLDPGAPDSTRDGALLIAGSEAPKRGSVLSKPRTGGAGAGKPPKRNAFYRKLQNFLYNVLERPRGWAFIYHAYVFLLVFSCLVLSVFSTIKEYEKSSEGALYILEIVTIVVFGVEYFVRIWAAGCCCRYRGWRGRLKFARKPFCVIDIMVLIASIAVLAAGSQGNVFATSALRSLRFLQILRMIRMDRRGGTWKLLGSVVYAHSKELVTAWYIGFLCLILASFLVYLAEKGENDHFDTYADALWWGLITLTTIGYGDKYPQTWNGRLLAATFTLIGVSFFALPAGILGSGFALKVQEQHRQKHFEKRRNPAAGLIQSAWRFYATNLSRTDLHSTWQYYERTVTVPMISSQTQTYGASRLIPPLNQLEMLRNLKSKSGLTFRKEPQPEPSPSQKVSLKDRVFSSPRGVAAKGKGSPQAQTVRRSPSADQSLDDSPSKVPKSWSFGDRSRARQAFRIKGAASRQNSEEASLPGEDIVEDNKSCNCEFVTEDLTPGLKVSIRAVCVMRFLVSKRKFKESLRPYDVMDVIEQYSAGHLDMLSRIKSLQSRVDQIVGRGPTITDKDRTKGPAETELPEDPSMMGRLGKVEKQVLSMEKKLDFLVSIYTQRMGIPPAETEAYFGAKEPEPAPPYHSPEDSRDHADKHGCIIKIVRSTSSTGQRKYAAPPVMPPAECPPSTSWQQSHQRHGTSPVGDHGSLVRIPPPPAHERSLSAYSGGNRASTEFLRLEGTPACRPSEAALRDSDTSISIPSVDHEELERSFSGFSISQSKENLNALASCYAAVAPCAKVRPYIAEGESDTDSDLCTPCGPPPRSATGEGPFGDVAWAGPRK
# KCNQ2 inh baseline: recorded beside KCNQ2 inh, whose call it bears; B-score; measured here: initial fluorescence intensity artifact check;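 brightness before thallium and not channel activity; 0 = typical well and far values either way flag optical interference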
# Starred values were filed as active, the others as inactive; i = inactive; ! = not active in a repeat. The list is partial. The share of hits here may be higher or lower than overall.
KCNQ2 inh	KCNQ2 inh baseline	SMILES
i	-1.09	NC(=O)CC(NC(=O)c1cccc(Br)c1)c1ccc(N2CCN(c3ccccn3)CC2)c([N+](=O)[O-])c1 (stereo not drawn)
i	1.03	CCS(=O)(=O)c1cc([N+](=O)[O-])c(Sc2ccccc2NC(C)=O)s1
i	-2.19	O=C(Cc1coc2ccc3ccccc3c12)NC1CCCc2ccccc21 (stereo not drawn)
i	-0.04	Cc1ccc(C2(C)NC(=O)N(CC(=O)Nc3c(C)n(C)n(-c4ccccc4)c3=O)C2=O)cc1 (stereo not drawn)
i	-1.79	CCN1CCN(C(C(=O)NC2CCCCC2)c2ccc(Cl)cc2)CC1 (stereo not drawn)
i	0.01	CN(C)CCCN(C(=O)c1ccc(S(=O)(=O)N2CCc3ccccc32)cc1)c1nc2ccc(F)cc2s1
i	1.71	Cc1ncc2c(c1OC(=O)c1ccccc1)COC(C)(C)OC2
i	1.75	CC(NCC1(N2CCOCC2)CCCCC1)C(=O)Nc1ccc(Cl)cc1Cl (stereo not drawn)
i	-0.24	CCOc1ccc(NC(=S)N2c3ccccc3CC2C)cc1 (stereo not drawn)
i	-0.03	Cc1ccc(OCc2nnc(SCC(=O)c3cccs3)n2-c2ccccc2)cc1C
i	0.64	Cc1cc(C)cc(C(=O)Nc2cccc(NC(=O)c3ccco3)c2)c1
i	-1.04	O=C(c1ccc(C(F)(F)F)cc1)C1CCCN(C(=O)CN2C(=O)CSC2=O)C1 (stereo not drawn)
i	0.19	Cc1nn(-c2ccccc2)c(C)c1/C=N/NC(=O)CSc1nc2ccccc2c(=O)n1-c1ccc(Br)cc1
-6.79*!	-0.32*!	CSc1ccc2c(c1)C(N1CCN(C)CC1)Cc1ccccc1S2 (stereo not drawn)
i	-0.57	CC(=O)N1CCc2ccc(NC(=O)c3c(-c4c(Cl)cccc4Cl)noc3C)cc21
i	1.82	O=C(CO/N=C/c1ccc(OC(F)F)cc1)N1CCc2ccccc21
i	0.19	O=C(CCc1nnc2ccc(N3CCCCC3)nn12)NCC1CCN(Cc2ccc(F)cc2)CC1
-6.23*	-0.99*	CSCCC(NS(=O)(=O)c1ccccc1F)C(=O)OCc1ccccc1Cl (stereo not drawn)
i	0.09	Cc1ccc(S(=O)(=O)N(CC(=O)NCc2ccncc2)Cc2ccc(F)cc2)cc1
i	-0.04	CCN(CC)CCNC1=CC(=O)OC12CCCCC2
i	1.83	CCOC(=O)Cn1c(-c2ccccc2)ccc(C#N)c1=O
i	-0.94	CCOc1ccc2nc(SCC(=O)N3c4ccccc4Sc4ccccc43)sc2c1
i	0.04	O=C1NCC(COc2ccc(Cl)cc2)O1 (stereo not drawn)
i	-3.17	C=CCC1(O)C(=O)N2C(=C1C(=O)OCC)c1ccc3ccccc3c1CC2(C)C (stereo not drawn)
i	1.33	CCOC(=O)N1CCN(Cc2nc(-c3ccc(C)cc3)no2)CC1
i	0.04	COc1ccc(CCNC(=O)CCN2C(=O)c3ccccc3C2=O)cc1OC
i	-0.99	COc1ccc(NC(=S)NC(NC(=O)c2cccc3ccccc23)C(Cl)(Cl)Cl)c([N+](=O)[O-])c1 (stereo not drawn)
i	-1.23	Cc1ccc(C(=O)NC(=C(Cl)Cl)S(=O)(=O)c2ccc(C)cc2)cc1
i	1.2	CC(=O)c1ccc(NC(=O)CN2C(=O)CCC2=O)cc1
i	-1.43	O=C(c1ccc(N2CCCCC2)c([N+](=O)[O-])c1)N1CCN(c2ccccn2)CC1
i	-0.13	COCC1CCN(C(=O)c2cc(COc3ccc4ncccc4c3)on2)CC1
i	0.3	O=c1c2c(nc3nc(SCc4ccccc4)[nH]n13)CCC2
i	1.03	COc1cccc(C(=O)N2CCN(c3ccccn3)CC2)c1
i	0.09	Cc1ccc(-c2cc(C(=O)NCc3ccccn3)c3ccccc3n2)cc1
i	0.83	C=CCNc1oc(COc2ccc(C)cc2)nc1C#N
i	-0.62	CS(=O)(=O)N(CC(=O)Nc1cccc([N+](=O)[O-])c1)c1ccccc1F
i	-0.05	COc1ccc(/C=N/NC(=O)c2ccc(CN3c4cccc5cccc(c45)S3(=O)=O)cc2)cc1
i	0.04	CN(C)S(=O)(=O)c1cccc(C(=O)C2=C3SC=C(c4ccccc4)N3CC2)c1
i	0.17	COc1ccc(/C=N\N2CCN(Cc3ccccc3Cl)CC2)cc1
i	1.21	Cc1cccc(C)c1OCC(=O)N(Cc1cccs1)C1CCS(=O)(=O)C1 (stereo not drawn)
i	-1	CC(C)(O)C#Cc1ccccc1C(=O)NC(CC(N)=O)C(=O)O (stereo not drawn)
i	1.87	O=C(Nc1cnn(Cc2ccc(F)cc2)c1)c1noc2c1CCCC2
i	0.1	S=C1NCN(Cc2cccnc2)CN1c1cccc2ccccc12
i	0.82	CCN(CC)S(=O)(=O)c1cccc(NC(=O)COC(=O)C2COc3ccccc3O2)c1 (stereo not drawn)
i	1.77	CC(=O)c1ccc(NC(=O)CCNS(=O)(=O)c2ccccc2F)cc1
i	-0.01	COc1ccc([N+](=O)[O-])cc1NC(=O)C(C)OC(=O)C1CC(=O)N(Cc2ccco2)C1 (stereo not drawn)
i	-1.25	CCn1cc(/C=C/C(=O)Nc2c(C)nn(Cc3ccccc3C)c2C)cn1
i	-1.31	CC1(Cc2cn(CCC#N)c3ccccc23)OCCO1
i	-0.54	CCc1ccc(-c2csc3ncn(CC(=O)N4CCOCC4)c(=O)c23)cc1
i	1.09	Cc1ccc(C(=O)N(CC(=O)NC2CCCC2)c2ccc3c(c2)OCCO3)s1
i	-0.88	C=CCn1c(=O)/c(=C/c2ccc(Cl)cc2)s/c1=C(/C#N)c1nnc2n1CCCCC2
i	0.11	CC1=C(C(=O)Nc2ccc(C)cc2C)C(c2cccs2)NC(=S)N1 (stereo not drawn)
i	1.19	O=C(Nc1ccc(Cl)cn1)c1ccc(COc2ccccc2Br)o1
i	-0.12	O=C(CSCc1cnn(-c2ccccc2)c1-n1cccc1)NCc1cccs1
i	0.03	CSc1nc2cc(C)nn2c(-c2ccc(C(C)(C)C)cc2)c1C#N
i	-1.63	CCn1cc(SCC(=O)NC2CCCC2)c2ccccc21
i	-0.3	O=C(O)CCC(=O)NC1CCCCCCC1
i	0.04	Cc1cc(C)n2c(SCCO)nnc2n1
i	0.48	CC1CCCCC1NC(=O)c1cccc(NC2=NC3CS(=O)(=O)CC3S2)c1 (stereo not drawn)
i	-2.09	COc1ccc(C(=O)NCC2OCCc3ccccc32)c(O)c1 (stereo not drawn)

# Random excerpt: 4 records from the list
KCNQ2 inh	KCNQ2 inh baseline	SMILES
i	1.19	O=C(Nc1ccc(Cl)cn1)c1ccc(COc2ccccc2Br)o1
i	-0.54	CCc1ccc(-c2csc3ncn(CC(=O)N4CCOCC4)c(=O)c23)cc1
i	-0.88	C=CCn1c(=O)/c(=C/c2ccc(Cl)cc2)s/c1=C(/C#N)c1nnc2n1CCCCC2
i	-1.63	CCn1cc(SCC(=O)NC2CCCC2)c2ccccc21

# Next results
KCNQ2 inh	KCNQ2 inh baseline	SMILES
i	3.55	CCOc1ccc(-c2nnc3ccc(SCC(=O)Nc4nc5ccc(C)cc5s4)nn23)cc1
i	1.85	Cc1ccc(C2CC(c3cccs3)=NN2C(=O)CCl)cc1 (stereo not drawn)
i	0.96	C[C@@H]1CN(c2nc3nonc3nc2N2CCSCC2)C[C@H](C)O1
i	1.36	c1ccc(-n2nnnc2SCc2cn3ccccc3n2)cc1
i	2.18	O=C(Cn1c2c(c(=O)n3ncnc13)CCC2)N/N=C/c1cccs1
i	-1.38	O=C(CN1CCN(S(=O)(=O)N2CCCCC2)CC1)Nc1cc(Cl)ccc1Cl
i	0.63	O=C1c2ccc([N+](=O)[O-])cc2C(=O)N1c1ccc([N+](=O)[O-])cn1
i	2.27	O=C(c1c(F)cccc1F)N1CCN(c2ncc(Br)cn2)CC1
i	1.71	CCOc1ccccc1C(=O)Nc1cccc2ccccc12
i	0.08	[O-][n+]1onc2c1C(N1CCOCC1)CCC2N1CCOCC1 (stereo not drawn)
i	0.42	CN(C)CCNC(=O)COc1ccc(C23CC4CC(CC(C4)C2)C3)cc1
i	-0.05	Cc1cc2c(cc(C(=O)NCCCN3CCOCC3)n2Cc2ccc(Cl)cc2)o1
i	0.56	CCC(c1nnnn1CCOC)N1CCN(c2cccc(C(F)(F)F)c2)CC1 (stereo not drawn)
i	-0.01	COc1cccc(CNC(=O)Cn2ncn3cccc3c2=O)c1OC
i	0.91	O=CN(/C=C1\Sc2ccccc2C1=O)Cc1ccccc1
i	-0.06	COc1cccc(CN2CCNC(=O)C2CC(=O)N(C)CCc2ccccn2)c1 (stereo not drawn)
i	0.29	CCN(C(=O)COC(=O)CCS(=O)(=O)c1ccc(C)cc1)C1CCS(=O)(=O)C1 (stereo not drawn)
i	-1.08	Cn1cc(SCC(=O)N2CCCc3ccccc32)c2ccccc21
i	1.09	COCCn1c(SCC#N)nnc1-c1ccccc1O
i	-0.45	CC(C)C1=CC(=Nc2ccc(S(N)(=O)=O)cc2)C=C(C(C)C)C1=O
i	-2.9	Cc1cc(N2CCN(c3ccccc3)CC2)nc(-n2nc(C)cc2C)n1
i	0.93	CCN(CC)C(=O)c1ccc(C(=O)c2c(C)cc(C)cc2C)cc1
i	-1.49	COc1ccc(S(=O)(=O)NC(CC(=O)N2CCc3ccccc32)c2ccco2)cc1 (stereo not drawn)
-5.63*	-0.75*	N#Cc1c(N2CCN(C(=O)c3ccco3)CC2)nc(-c2ccccc2)c2c1CCCC2

# Looked up above:
# `COc1cccc(CNC(=O)Cn2ncn3cccc3c2=O)c1OC` in KCNQ2 inh baseline → -0.01
# `CC(C)C1=CC(=Nc2ccc(S(N)(=O)=O)cc2)C=C(C(C)C)C1=O` in KCNQ2 inh baseline → -0.45
# `CCN(C(=O)COC(=O)CCS(=O)(=O)c1ccc(C)cc1)C1CCS(=O)(=O)C1` (stereo not drawn) in KCNQ2 inh baseline → 0.29

# Further entries.
KCNQ2 inh	KCNQ2 inh baseline	SMILES
i	-0.04	CCOC(=O)C(Oc1ccc(=O)[nH]n1)C(C)=O (stereo not drawn)
i	0.53	C/C=C/Cn1c(SCc2ccccc2)nc2c1c(=O)[nH]c(=O)n2C
i	0.77	Cc1cccn2c(=O)c(/C=C(\C#N)S(=O)(=O)c3ccccc3)c(N3CCC(C(N)=O)CC3)nc12
i	0.82	C/C(=N\NC(=O)C(N)=O)c1cccc([N+](=O)[O-])c1
i	-2.44	O=C(NC1CCCC1)c1cnn2c(C(F)(F)F)cc(-c3ccco3)nc12
i	-1.6	COc1ccc(Cn2c(=S)[nH]c3cc(C(=O)N4CCCCC4)ccc3c2=O)cc1
i	0.22	COc1ccc(N(C)C(=O)c2cn(CC(C)C)c(=O)c3cc(OC)c(OC)cc23)c(OC)c1
i	1.71	Clc1ccc2c(N/N=C/c3cccc(Br)c3)ccnc2c1
i	1.32	O=c1c2ccccc2c(-c2ccc(O)cc2)nn1-c1cccc(C(F)(F)F)c1
i	0.31	Cc1nc(NCCc2ccc(F)cc2)c(C#N)c(C)c1[N+](=O)[O-]
i	-1.14	Cc1ccc(F)c(NC(=O)/C(C#N)=C(\O)c2ccc(C(C)(C)C)cc2)c1
i	-0.79	COc1ccc(-n2cc(-c3ccccc3)[nH]c2=S)c(OC)c1

# Grouped by structure: the entries above with bromine (five)
KCNQ2 inh	KCNQ2 inh baseline	SMILES
i	-1.09	NC(=O)CC(NC(=O)c1cccc(Br)c1)c1ccc(N2CCN(c3ccccn3)CC2)c([N+](=O)[O-])c1 (stereo not drawn)
i	0.19	Cc1nn(-c2ccccc2)c(C)c1/C=N/NC(=O)CSc1nc2ccccc2c(=O)n1-c1ccc(Br)cc1
i	1.19	O=C(Nc1ccc(Cl)cn1)c1ccc(COc2ccccc2Br)o1
i	2.27	O=C(c1c(F)cccc1F)N1CCN(c2ncc(Br)cn2)CC1
i	1.71	Clc1ccc2c(N/N=C/c3cccc(Br)c3)ccnc2c1

# Next part:
KCNQ2 inh	KCNQ2 inh baseline	SMILES
i	0.65	O=C1c2ccccc2CSc2c(O)cccc21
i	1.05	Cn1nccc1C(=O)N(CCN1CCCCC1)CC1CCCN(C2CCCC2)C1 (stereo not drawn)
i	-1.02	Cn1c(Sc2ccc([N+](=O)[O-])cc2C(F)(F)F)nnc1-c1ccccc1
i	1.09	O=C(NCCN1CCOCC1)c1ccncc1
i	0.51	COc1ccc(S(N)(=O)=O)cc1C(=O)NCC1(N2CCCCC2)CCCCC1
i	-1.05	Cc1nc(CNC(=O)C2CCC(=O)N(CCc3ccc(Cl)cc3)C2)sc1C (stereo not drawn)
i	0.38	O=c1[nH]nc(N/N=C/c2ccc(Cl)cc2Cl)c(=O)[nH]1
i	-0.09	CC(C)C(c1nnnn1C1CCCC1)N1CCCCC1 (stereo not drawn)
i	0.95	COc1ccc(-c2nnc(SCc3cccnc3)o2)cc1
i	-0.04	Cc1ccc2cc3cc(C(=O)NCCCN4CCCCCC4)oc3nc2c1
i	0.72	Cc1ccc(NC(=O)Cn2ccc(=O)[nH]c2=O)cc1
i	-0.94	COc1cccc(N/C(N)=N/c2nc(C)cc(=O)[nH]2)c1

# An excerpt from above in order of length of the SMILES, falling:
KCNQ2 inh	KCNQ2 inh baseline	SMILES
i	1.77	CC(=O)c1ccc(NC(=O)CCNS(=O)(=O)c2ccccc2F)cc1
i	-1.79	CCN1CCN(C(C(=O)NC2CCCCC2)c2ccc(Cl)cc2)CC1 (stereo not drawn)
i	-0.01	COc1cccc(CNC(=O)Cn2ncn3cccc3c2=O)c1OC

# Next compounds follow:
KCNQ2 inh	KCNQ2 inh baseline	SMILES
i	-0.68	COc1cccc(N2CCN(CC(=O)NC(=O)NCc3ccco3)CC2)c1
i	-1.39	O=C(NCCC1CCCCN1S(=O)(=O)c1cccs1)C(=O)NCc1ccccc1 (stereo not drawn)
i	0.13	O=C(NCc1ccco1)c1ccc(NS(=O)(=O)c2cccc(F)c2)cc1
i	-0.01	COc1ccc(N2CCOCC2)c(NC(=O)COc2cccc(C)c2C)c1
i	0.06	CC(C)(C)[C@]1(O)CCN2C[C@H]3c4ccccc4CCc4cccc(c43)[C@@H]2C1
i	0.01	O=C(c1ccc(Br)o1)N(Cc1ccccc1)Cc1ccccc1
